Bioassay records from PubChem.
Sa growth 42C: inhibitors of Staphylococcus aureus growth at 42 °C; S. aureus RN4220 growth, OD600, 20 h; stronger effect = lower value; relative growth, % (no concentration beside the values); 170,000 tested, 0.53% active;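 active means growth at 42 °C up to 50% and 20 or more points under that at 30 °C, or under 10% at both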;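 further: 300 nL library stock went into each well; scaled to the means of positive and negative controls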
HCMV NEC inh: cytomegalovirus nuclear egress complex inhibition | HTRF UL50-UL53 interaction, normalized percent inhibition | inhibition, % (test concentration not listed) | 190,000 tested, 0.15% active;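 active means both replicates at 50% or more, plus weaker picks with an unusually low signal ratio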;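 further: stock transfer was 100 nL into about 20 µL; 0% = negative control wells and 100% = wells with untagged competitor protein; inactives centre near -12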
GIV Gai3 FP: blocks GIV peptide binding to rat Galpha-i3; Galpha-i3/FITC-GIV peptide fluorescence polarization, 90 min; stronger effect = lower value; scaled: aluminum fluoride 0%, vehicle 100%; percent of control (FP), % (test concentration not listed); 210,000 tested, 0.42% active; AID 1224905;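 active means replicate mean at 85% of control or lower, very high polarization wells dropped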;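 further: wells of about 15 µL received 100 nL stock; the first replicate is given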
Target sequence (P08753 whole entry, looked up): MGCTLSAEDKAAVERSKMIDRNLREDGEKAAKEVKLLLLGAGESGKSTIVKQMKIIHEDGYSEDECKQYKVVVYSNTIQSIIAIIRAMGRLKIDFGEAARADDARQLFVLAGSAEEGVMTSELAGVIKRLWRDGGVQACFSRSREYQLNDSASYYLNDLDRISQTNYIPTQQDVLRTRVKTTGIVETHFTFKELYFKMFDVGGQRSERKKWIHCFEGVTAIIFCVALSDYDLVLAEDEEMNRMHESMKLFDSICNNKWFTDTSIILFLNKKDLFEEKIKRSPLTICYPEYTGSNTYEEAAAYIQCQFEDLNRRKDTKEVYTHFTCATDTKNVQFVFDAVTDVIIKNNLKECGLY
Sa growth 42C second temp: recorded beside Sa growth 42C, whose call it bears; relative growth, %; measured here: growth at 30 °C;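 optical density after 20 h as mean of two plates; 100% = untreated growth and lower means inhibition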
* marks the source's active call; other numbers are inactive results; nt = no result given; & = joins results of further samples.

1	COc1cc2c(cc1OC)C(COc1ccccc1OC)N(C(=O)c1ccc(S(=O)(=O)N3CCCC3)cc1)CC2 (configuration not stated)
2	COc1ccc(-c2nnc(C3CCN(S(=O)(=O)c4cccc(Cl)c4)CC3)o2)cc1
3	COc1cc(-c2cc(C(F)(F)F)n3ncc(C(=O)NCc4cccs4)c3n2)cc(OC)c1OC
4	CCCCN(C)C1=Nc2cccc3cccc1c23
5	CCOC(=O)C1CCCN(C(=O)CCCC(=O)n2ncc3cc(C)ccc32)C1 (configuration not stated)
6	Cc1ccccc1S(=O)(=O)/N=C(\N)c1ccccc1
7	CC(O)Cn1c(=N)n(Cc2ccccc2)c2ccccc21 (configuration not stated)
8	COC(=O)c1ccc(Oc2nc3c(c(=O)n(C)c(=O)n3C)n2Cc2ccccc2)cc1
compound no. | 1 | 2 | 3 | 4 | 5 | 6 | 7 | 8
Sa growth 42C | 120 | 108 | nt | 95 | 102 | 120 | 83 | 115
Sa growth 42C second temp | 97 | 90 | nt | 96 | 80 | 88 | 86 | 90
HCMV NEC inh | nt | -36 | 18 | -55 | nt | nt | -9 | 3
GIV Gai3 FP | 106 | 103 | 107 | nt | 105 | 102 | 103 | 110

Of the compounds above, these contain an aryl methoxy group.
1	COc1cc2c(cc1OC)C(COc1ccccc1OC)N(C(=O)c1ccc(S(=O)(=O)N3CCCC3)cc1)CC2 (configuration not stated)
2	COc1ccc(-c2nnc(C3CCN(S(=O)(=O)c4cccc(Cl)c4)CC3)o2)cc1
3	COc1cc(-c2cc(C(F)(F)F)n3ncc(C(=O)NCc4cccs4)c3n2)cc(OC)c1OC
compound no. | 1 | 2 | 3
Sa growth 42C | 120 | 108 | nt
Sa growth 42C second temp | 97 | 90 | nt
HCMV NEC inh | nt | -36 | 18
GIV Gai3 FP | 106 | 103 | 107

Next part:
9	CCN(CCNC(=O)c1nc2c(=O)n(Cc3cccc(F)c3)c3cc(C)ccc3n2n1)Cc1ccccc1
10	COC(=O)c1nc2ccccc2nc1NC1CCC(C)CC1 (configuration not stated)
11	COC(=O)C1=C(C)NC2=C(C(=O)CC(c3ccc(N(C)C)cc3)C2)C1c1ccco1 (configuration not stated)
12	Cn1c(=O)c2c(n(C)c1=O)=NC1(CCCCC1)ON=2
13	O=C(CSc1ncnc2sc3c(c12)CCCC3)N/N=C/c1cccs1
14	COc1cc2c3nc4n(c(=O)c3n(CC(=O)N3CCCCC3C)c2cc1OC)CCS4 (configuration not stated)
15	CN(C)S(=O)(=O)c1ccc(N2CCCC2)c(C(=O)NC23CC4CC(CC(C4)C2)C3)c1
16	Cc1nc2nc(N(Cc3cc(F)cc(F)c3)S(=O)(=O)c3ccc(Cl)cc3)nn2c(C)c1Cl
compound no. | 9 | 10 | 11 | 12 | 13 | 14 | 15 | 16
Sa growth 42C | nt | nt | 85 | 109 | 87 | 97 | 92 | nt
Sa growth 42C second temp | nt | nt | 64 | 83 | 89 | 73 | 97 | nt
HCMV NEC inh | -2 | 4 | nt | -90 | -26 | -16 | -5 | -27
GIV Gai3 FP | 100 | 105 | 97 | 102 | 104 | 105 | nt | 105

17	CCOc1ccc(OCC)c(NC(=O)c2cnn(-c3ccc(F)cc3)c2C2CCN(C(=O)OC(C)(C)C)CC2)c1
18	O=C1OC(c2ccccc2)=N/C1=C\C=C\c1ccco1
19	O=C(CC1OC(=O)c2ccccc21)c1ccc(Cl)s1 (configuration not stated)
20	Cc1cccc(C)c1NC(=O)COC(=O)c1cc(Cl)cc(Cl)c1
21	C#CCSc1nc2ccccc2c2nc(-c3ccncc3)nn12
22	CCc1ccc(NC(=O)Cn2nnnc2N)cc1
23	Fc1cccc(Nc2nc(-c3ccccc3)no2)c1
24	CC1CCN(c2nc3ccccc3nc2C(F)(F)F)CC1
compound no. | 17 | 18 | 19 | 20 | 21 | 22 | 23 | 24
Sa growth 42C | 75 | 114 | 100 | 95 | nt | 115 | 90 | 89
Sa growth 42C second temp | 91 | 90 | 95 | 86 | nt | 87 | 86 | 87
HCMV NEC inh | nt | -30 | 30 | -6 | 6 | -21 | 8 | -20
GIV Gai3 FP | 104 | 100 | 100 | nt | 104 | 100 | 107 | 98&100

25	CCC(CC)NC(=O)C1c2ccccc2Oc2ccccc21
26	COc1ccc(-c2nc3nc4ccccc4nc3n2CC2CCCO2)cc1 (configuration not stated)
27	Cn1c(CN2CCCCC2)nc2cc(NC(=O)c3cccc(Br)c3)ccc21
28	Fc1cccc(Cl)c1C=NCc1ccc(Cl)cc1
29	CCOCCCN1C(=O)c2ccccc2CC1(C)C(=O)NC1CCCCC1 (configuration not stated)
30	COc1ccc2[nH]c3c(=O)n(CCCCC(=O)NCc4ccccc4)c(=S)[nH]c3c2c1
31	Cc1ccccc1Cn1c(C)c(/C=C2\SC(N)=NC2=O)c2ccccc21
32	CC(C)CC(NS(=O)(=O)c1ccc2c(c1)CCCC(=O)N2)C(=O)N1CCOCC1 (configuration not stated)
compound no. | 25 | 26 | 27 | 28 | 29 | 30 | 31 | 32
Sa growth 42C | 99 | 90 | 109 | 101 | 108 | 91 | 100 | 96
Sa growth 42C second temp | 90 | 70 | 95 | 86 | 87 | 96 | 87 | 82
HCMV NEC inh | nt | -83 | -5 | -39 | -36 | nt | -9 | -26
GIV Gai3 FP | 97 | 101 | 105 | 101 | 104 | 99 | 100 | 101

33	CN(C1CCCCC1)S(=O)(=O)c1ccc(S(=O)(=O)c2ccccc2)s1
34	CSc1nc2cc(C3CC3)nn2c(N)c1S(=O)(=O)c1ccc(Cl)cc1
35	Cc1coc2c1c(C)cc1oc(=O)c(CC(=O)NCCc3ccc(Cl)cc3)c(C)c12
36	COC(=O)c1ccc(CSc2nc(-c3ccc(OC)cc3)ns2)o1
37	Cc1cc(NC(=O)CC2CCCC2)n(-c2ncnc3c2cnn3-c2ccc(F)cc2)n1
38	Cc1ccc(C(=O)c2ccc(Oc3ccccc3)cc2)cc1
39	CC1CCCN(Cc2c(O)ccc3cc(-c4nc5ccccc5[nH]4)c(=O)oc23)C1 (configuration not stated)
40	Cc1noc2c1C(c1cccc(O)c1)C1=C(CC(c3ccccc3)CC1=O)N2 (configuration not stated)
compound no. | 33 | 34 | 35 | 36 | 37 | 38 | 39 | 40
Sa growth 42C | 108 | 103 | 116 | 108 | nt | 115 | 101 | nt
Sa growth 42C second temp | 90 | 80 | 90 | 85 | nt | 94 | 103 | nt
HCMV NEC inh | -10 | -4 | -27 | nt | 24 | nt | -17 | 8
GIV Gai3 FP | 104 | 102 | 103 | 101 | 105 | 102 | -33* | 102

41	Cc1ccc(NC(=O)Cn2c(=O)n(CCc3ccccc3)c(=O)c3sc4ccccc4c32)cc1C
42	O=C(CSc1n[nH]c(-c2ccc(F)cc2)n1)NCc1ccccc1Cl
43	CN(C1CCCCC1)S(=O)(=O)c1ccc2c(c1)c(=O)c(C(=O)NCc1ccc(Cl)cc1)cn2C
44	COC(=O)c1cc2sccc2n1Cc1ccc(Cl)cc1
45	COc1ccc(OCc2nnc3sc(-c4ccccn4)nn23)cc1
46	COc1ccc(/C=C2\N=C(c3ccccc3)N(/N=C/c3cccnc3)C2=O)cc1
47	COc1cc(C2c3c(oc4ccc(F)cc4c3=O)C(=O)N2c2nc(C)c(C)s2)cc(OC)c1OC (configuration not stated)
48	CC1(C(=O)NC2CCCC2)Cn2c(ccc2-c2ccccc2)C(=O)N1Cc1ccc2c(c1)OCO2 (configuration not stated)
compound no. | 41 | 42 | 43 | 44 | 45 | 46 | 47 | 48
Sa growth 42C | 92 | 99 | 103 | 89 | nt | 103 | 104 | nt
Sa growth 42C second temp | 85 | 93 | 87 | 96 | nt | 103 | 107 | nt
HCMV NEC inh | -11 | nt | -23 | -26 | -18 | 10 | 13 | 2
GIV Gai3 FP | 100 | 105 | 101 | 102 | 106 | 108 | 105 | 103

Single records, as listed above.
COc1ccc(/C=C2\N=C(c3ccccc3)N(/N=C/c3cccnc3)C2=O)cc1 is listed with Sa growth 42C: 103; Sa growth 42C second temp: 103; HCMV NEC inh: 10; GIV Gai3 FP: 108
COC(=O)c1cc2sccc2n1Cc1ccc(Cl)cc1 is listed with Sa growth 42C: 89; Sa growth 42C second temp: 96; HCMV NEC inh: -26; GIV Gai3 FP: 102

Following part.
49	Cc1csc2nc(CCNC(=O)CC3CCCC3)cn12
50	C=CCn1c(COc2cccc3cccnc23)nnc1SCCC(=O)O
51	Nc1nnc(CC(=O)N/N=C/c2cccs2)s1
52	O=C(CSc1nc2c(c(=O)n1Cc1ccccc1)SCC2)NC1CCCC1
53	O=C(O)c1cc(NS(=O)(=O)N2CCOCC2)ccc1N1CCCC(CN2CCCC2)C1 (configuration not stated)
54	COc1ccccc1/C=C/C=N/NC(=O)c1cc(-c2ccco2)[nH]n1
55	COc1ccc(NC(=O)N2Cc3cccn3-c3ccccc32)cc1OC
56	C[C@@H]1O[C@@H](OC[C@H]2OC(Oc3c(-c4ccc(O)c(O)c4)oc4cc(O)cc(O)c4c3=O)[C@H](O)[C@@H](O)[C@@H]2O)[C@H](O)[C@H](O)[C@H]1O (some centres not stated)
compound no. | 49 | 50 | 51 | 52 | 53 | 54 | 55 | 56
Sa growth 42C | 83 | 101 | 117 | 102 | nt | 88 | nt | 96
Sa growth 42C second temp | 85 | 102 | 83 | 90 | nt | 82 | nt | 93
HCMV NEC inh | -38 | -29 | -54 | nt | -12 | -45 | -6 | -63
GIV Gai3 FP | 105 | 103 | 103 | 100 | 102 | 101 | 99 | nt

Entries shown so far that have a COOH group, in the order listed:
50	C=CCn1c(COc2cccc3cccnc23)nnc1SCCC(=O)O
53	O=C(O)c1cc(NS(=O)(=O)N2CCOCC2)ccc1N1CCCC(CN2CCCC2)C1 (configuration not stated)
compound no. | 50 | 53
Sa growth 42C | 101 | nt
Sa growth 42C second temp | 102 | nt
HCMV NEC inh | -29 | -12
GIV Gai3 FP | 103 | 102

(listing goes on)
57	CC(C)(C)CC(=O)NC1CCCCCCC1
58	CC(C)N(C(=O)CSc1nnc(NC2CC2)s1)c1ccccc1
59	CN(C)c1ccc(CNC(=O)CCn2c(=O)c3cccn3c3ccc(F)cc32)cc1
60	COc1ccc(-c2nc3sc(CCNC(=O)C(C)(C)C)c(C)n3n2)cc1
61	CCCOc1ccc(NC(=O)CC2C(=O)N(c3ccccc3)C(=O)N2Cc2ccco2)cc1 (configuration not stated)
62	CC1(C)CC(=O)C2=C(C1)Nc1ccccc1NC2c1ccc(F)c(F)c1 (configuration not stated)
63	C#CCN1C(=O)S/C(=C/c2cc(C)n(-c3ccc(OC)cc3)c2C)C1=O
64	COc1ccccc1Cn1cnc2cccnc21
compound no. | 57 | 58 | 59 | 60 | 61 | 62 | 63 | 64
Sa growth 42C | 103 | 86 | 103 | 97 | 109 | nt | 98 | 98
Sa growth 42C second temp | 97 | 97 | 85 | 87 | 92 | nt | 112 | 88
HCMV NEC inh | -3 | -12 | -9 | nt | nt | -3 | -11 | -26
GIV Gai3 FP | 103 | nt | 100 | 100&98 | 114 | 96 | 108 | 104

65	O=C1NC(=O)C(=Cc2cc(Br)ccc2OCc2ccc(Cl)cc2)C(=O)N1
66	Cc1nn2cc(Cl)nc2s1
67	Cn1cc(C(=O)O)c(=O)c2cc(S(=O)(=O)N3CCOCC3)ccc21
68	COC(=O)c1cnc(N(C)C2CCCCC2)c2ccccc12
69	Cc1ccc(S(N)(=O)=O)cc1NC(=O)c1c(-c2c(Cl)cccc2Cl)noc1C
70	CCOC(=O)c1cc(C(=O)OC)c(C)nc1NCc1ccc2c(c1)OCO2
71	Cc1ccccc1CNC(=O)C1CCN(S(=O)(=O)Cc2ccccc2)CC1
72	Cc1ccc(N2CC(C(=O)NCCS(=O)(=O)N3CCN(c4ccccc4)CC3)CC2=O)cc1 (configuration not stated)
compound no. | 65 | 66 | 67 | 68 | 69 | 70 | 71 | 72
Sa growth 42C | nt | 103 | 99 | 92 | 91 | 95 | 99 | 107
Sa growth 42C second temp | nt | 90 | 95 | 87 | 82 | 85 | 85 | 93
HCMV NEC inh | 50* | -8 | nt | -26 | 3 | -51 | -21 | nt
GIV Gai3 FP | 78* | nt | 103 | 98&108 | 104 | 106 | 101 | 105

73	O=C(Nc1ccccc1C(F)(F)F)c1ccccn1
74	Cc1ccccc1N1CC(c2nnc(NC(=O)c3ccccc3)s2)CC1=O (configuration not stated)
75	COc1ccc(/C=c2\s/c(=C\C(=O)c3ccco3)[nH]c2=O)cc1O
76	O=C(NCCO)C1=Cc2ccccc2OC1
77	Cc1ccccc1NC(=O)CSc1nc2ccc(NC(=O)CCc3ccccc3)cc2s1
78	CC1(C)CC2CC(C)(CN2S(=O)(=O)c2cccc(C(N)=O)c2)C1 (configuration not stated)
79	CCN(CC)C(=O)c1ccccc1Nc1ccc(SC(F)F)cc1
80	O=C(Oc1ccc(OC(=O)c2ccco2)cc1)c1ccco1
81	Cc1ccc2[nH]c(=O)c(CN(Cc3ccccc3)C(=O)c3ccco3)cc2c1
82	Nc1ccccc1-c1n[nH]c(C2CC2)n1
compound no. | 73 | 74 | 75 | 76 | 77 | 78 | 79 | 80 | 81 | 82
Sa growth 42C | 87 | nt | 65 | 97 | 92 | 85 | 70 | 69 | 77 | 107
Sa growth 42C second temp | 94 | nt | 83 | 86 | 83 | 82 | 68 | 94 | 111 | 96
HCMV NEC inh | -13 | -9 | -61 | -53 | -27 | -22 | -6 | -3 | 10 | 9
GIV Gai3 FP | nt | 107 | nt | 96 | 100 | nt | nt | nt | 98 | nt
